Screens from PubChem BioAssay.
VCAM-1 rise: enhancers of VCAM-1 display on endothelial cells, cell-based, plate reader, pooled HUVEC, TNFa stimulus (AID 455). augmentation, % at 5 µM. 10,000 compounds, 0.2% hits. HUVEC TNFa-induced VCAM-1 immunofluorescence, plate reader; numbers were filed only for top-ranked candidate wells;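 active = a compound raising TNF-alpha-driven VCAM-1 surface staining, with its hit status upheld on visual or statistical review; inactive = the rest, including hits rejected on review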;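 note: 0% = TNFa with vehicle and 100% = strongest image-checked hit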
26S disassembly: inhibitors of ATP-driven 26S proteasome dissociation, primary screen, biochemical, bead-based flow cytometry, GFP-tagged proteasome. anti-FLAG beads, GFP-proteasome disassembly. inhibition of disassembly, % (concentration not given with the values). 24,000 compounds, 0.2% hits;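 active = above 40%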;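 note: plate controls were ATP control with full disassembly for no effect and ATP-gamma-S intact proteasomes for full effect; higher percent means more bead fluorescence retained so stronger block of disassembly; stock transfer was 100 nL into about 10 µL; wells with too few beads may also be inconclusive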
Starred values were filed as active, the others as inactive; i = inactive; / = no result given. The list is partial (hit frequency here may not be typical).

SMILES	VCAM-1 rise	26S disassembly
Cc1cnc(NC(=O)CSc2nnc(-c3ccccc3)n2Cc2ccccc2)s1	i	-1.6
CCn1c(=O)cc(OCC(=O)NCc2ccco2)c2ccccc21	/	-0.3
CNC(=O)CSc1nnc(-c2cc(C)cc(C)c2)o1	i	0.1
CCOC(=O)N1CCN(c2nc(-c3ccc(Cl)cc3)cs2)CC1	i	-0.9
CCN1CCn2c3c(c4cc(Cl)ccc42)CCCC31 (stereo not given)	/	0.2
O=C(O)c1cccc(Cn2cccn2)c1	/	0.0
COC(=O)c1ccccc1NC(=O)CCNC(=O)Cn1cnc2ccccc2c1=O	/	-1.4
Cc1c(NC(=O)NCCN2C(=O)C3C4C=CC(C4)C3C2=O)c(=O)n(-c2ccccc2)n1C (stereo not given)	/	-0.4
Cc1cccn2c(=O)c3cc(C(=O)N4COCC4(C)C)n(C)c3nc12	/	0.6
CCCC(=O)N(c1ccc2oc(=O)sc2c1)S(=O)(=O)c1cccs1	/	2.2

Ordered by number of heavy atoms (low to high): three of the compounds above.
SMILES	VCAM-1 rise	26S disassembly
CNC(=O)CSc1nnc(-c2cc(C)cc(C)c2)o1	i	0.1
CCCC(=O)N(c1ccc2oc(=O)sc2c1)S(=O)(=O)c1cccs1	/	2.2
Cc1c(NC(=O)NCCN2C(=O)C3C4C=CC(C4)C3C2=O)c(=O)n(-c2ccccc2)n1C (stereo not given)	/	-0.4

Carrying on.
SMILES	VCAM-1 rise	26S disassembly
O=C(CCCNS(=O)(=O)c1cccs1)N1CCN(c2cccc(Cl)c2)CC1	/	-0.7
NC(=O)Cn1c(=O)oc2ccccc21	/	1.9
CCOC(=O)c1cc(-c2ccc3c(c2)OCO3)nc2onc(C)c12	i	0.0
CC1(C)CC(=O)N(CC(=O)O)c2ccccc2S1(=O)=O	/	1.4
O=C(CCNC(=O)c1ccc(Br)o1)NCc1ccccn1	/	-4.2
COc1cc2c(C(=O)N3CCN(Cc4ccc5c(c4)OCO5)CC3)cn(C)c(=O)c2cc1OC	/	0.8
Cn1c(C(=O)NCc2cccnc2)cc2sc(Cl)cc21	/	0.3
COc1ccccc1-c1c(C)nn2c(N3CCC4(CC3)OCCO4)cc(C)nc12	i	0.2
Cc1cc(=O)oc(C)c1C(=O)NCCCN1CCN(c2ccccc2F)CC1	/	0.0
CC(C)Nc1ncnc2c1cnn2-c1ccccc1	i	-1.8
O=C1CC(c2ccco2)=Nc2ccccc2N1	i	0.0
Cc1ccc(Cn2nnc3c(=O)n(CC(=O)N4CCCCC4)cnc32)cc1	/	0.9
O=C(CCCn1c(=S)[nH]c2cc3c(cc2c1=O)OCO3)N1CCN(c2ncccn2)CC1	/	-2.5
O=S(=O)(NCCc1ccccc1F)c1cccc(S(=O)(=O)N2CCOCC2)c1	i	1.0
COc1cccc(C2C(C(=O)Nc3cccnc3)=C(C)Nc3nnnn32)c1OC (stereo not given)	/	-1.2
O=c1oc(-c2cccc(S(=O)(=O)N3CCOCC3)c2)nc2ccccc12	/	-0.3
Cc1cccc(NC(=O)CCn2nc(C)cc2C)c1	/	0.2
CCCc1ccccc1OCCNC(C)=O	i	-1.1
S=c1[nH]ncn1/N=C/c1ccccc1	/	-1.3
Cc1ccc(CCSCC(=O)O)cn1	i	0.0

Shown with values ahead of the structure: three of the compounds above
VCAM-1 rise	26S disassembly	canonical_smiles
/	0.9	Cc1ccc(Cn2nnc3c(=O)n(CC(=O)N4CCCCC4)cnc32)cc1
i	-1.1	CCCc1ccccc1OCCNC(C)=O
/	-1.2	COc1cccc(C2C(C(=O)Nc3cccnc3)=C(C)Nc3nnnn32)c1OC (stereo not given)

(next part)
SMILES	VCAM-1 rise	26S disassembly
CC(C)CCN1C(=O)CCC1(C)C(=O)NC1CCCCCC1 (stereo not given)	/	0.7
CC(=O)N1CCN(S(=O)(=O)c2cccc(C(=O)Nc3ccc4c(c3)CCC4)c2)CC1	i	1.0
CCCCC(=O)NC(Nc1nc(C2CC2)cs1)(C(=O)OCC)C(F)(F)F (stereo not given)	/	-0.2
CN(CC(=O)NCc1cccs1)S(=O)(=O)c1cccc2cccnc12	/	-1.2
COc1ccc(CCNc2oc(-c3ccc(C)cc3)nc2C#N)cc1OC	/	-0.4
O=C(NCc1ccco1)C1CCN(c2ccc(N3CCOCC3)nn2)CC1	i	-0.6
COc1ccccc1-c1nc2n(n1)C(c1ccc(Cl)cc1)C(C(N)=O)=C(C)N2 (stereo not given)	i	-0.7
CC(C)CN(CC(C)C)S(=O)(=O)N1CCC(C(=O)NCc2ccc(F)cc2)CC1	/	0.6
Cc1c(C(=O)OC(C)C)[nH]c2c1C(=O)CCC2	i	-0.9
Cc1ccc(-c2cc(C(F)(F)F)n3ncc(C(=O)O)c3n2)cc1	i	-2.1
O=C(COc1ccccc1)N1CCN(C(=O)c2cccc(F)c2)CC1	i	-0.3
O=C(c1cc(-c2ccccc2O)on1)N1CCCC1	/	3.8
CNC(=O)c1cccc(N2CCCC2=O)c1	/	-1.1
Fc1cc(F)c(F)c(SCCc2ccncc2)c1F	i	0.2
CCN1CCN(Cc2ccc(NC(=O)Nc3ccccc3)cc2)CC1	i	0.3
CCOc1ccc(S(=O)(=O)Nc2ccc(Cl)cn2)c(C)c1C	i	-0.6
COc1ccccc1NC(=O)c1ccc(COc2ccccc2OC)o1	i	-0.8
CC(c1cccnc1)N(CCN(C)C)C(=O)Nc1ccc(Cl)c(Cl)c1 (stereo not given)	/	1.3
O=C(NC1CCN(Cc2ccccc2)CC1)C1CCN(c2nnc(-n3cccc3)s2)CC1	/	-1.1
CCn1c(CCC(=O)Nc2nc3c(s2)CCCC3)nc2cc(S(=O)(=O)N(C)C)ccc21	i	26.9
CC(=O)N1C(=O)C2(C(C#N)=C(N)Oc3n[nH]c(-c4ccccn4)c32)c2ccccc21 (stereo not given)	/	1.0
COC(=O)NC1CSCC1OC(=O)CCN1C(=O)c2ccccc2C1=O (stereo not given)	/	1.8
CCOc1ccc(-n2ccnc2SCC(=O)NCc2ccc3c(c2)OCO3)cc1	/	2.2
O=C(NCc1ccc(F)cc1)c1cc(-c2cccs2)on1	/	1.4
O=C(OCCN1C(=O)c2ccccc2C1=O)c1ccc(S(=O)(=O)N2CCCCCC2)cc1	i	5.7
O=C(c1ccco1)N1CCN(c2nc3ccccc3c(=O)n2-c2ccccc2)CC1	/	-1.8
CCN(CC)C1CCCCC1NS(=O)(=O)c1ccc(Cl)cc1 (stereo not given)	i	-1.0
Cc1cccc(Cn2c(SCC(=O)Nc3ccccc3)nc3c2c(=O)[nH]c(=O)n3C)c1	i	-0.4
O=C(c1ccc(Br)o1)N(c1ccc(Br)cc1)C1C=CS(=O)(=O)C1 (stereo not given)	i	-1.5
O=C(Nc1nc(-c2cccs2)cs1)c1cccc(S(=O)(=O)N2CCCCC2)c1	i	1.1
CCOC(=O)Nc1ccc2c(c1)N(C(=O)OCCN(C)C)c1ccccc1CC2	i	0.9
COc1ccccc1CNC(=O)C1CCCN(S(=O)(=O)c2cccc3cccnc23)C1 (stereo not given)	i	1.5
COc1ccc(CNc2oc(-c3ccccc3)nc2C#N)cc1	i	-0.2
COc1ccc(-c2nnnn2C)cc1S(=O)(=O)NCc1ccccc1	i	-0.8
COc1cc2[nH]c(=O)n(CCC(=O)NC3CCCC3)c(=O)c2cc1OC	/	-1.3
CS(=O)(=O)c1ccc2nc(NC(=O)CCC(=O)c3cccs3)sc2c1	i	-0.1
COc1ccc(NC(=O)CNS(=O)(=O)c2cccc3nonc23)c(OC)c1	/	-0.7
O=C(CSc1ccc2nnc(-c3ccccc3)n2n1)NCC1CCCO1 (stereo not given)	/	-1.3
COc1ccc(S(=O)(=O)Cc2ccc(C(=O)NC(C)C)o2)cc1	/	0.4
C#CCOC(=O)C1C2C=CC(C2)C1C(=O)O (stereo not given)	i	2.1
CCCCC(=O)N(c1ccc(OC)cc1)C1C=CS(=O)(=O)C1 (stereo not given)	/	0.3
CCOC(=O)CSc1nnc(CNC(=O)c2cccs2)n1CCc1ccccc1	/	0.0
CC1CN(c2nc3ccccc3nc2C(C#N)C(=O)NCc2ccc3c(c2)OCO3)CC(C)O1 (stereo not given)	i	4.5
COC(=O)Nc1ccc(C)c(NC(=O)OC)c1	/	2.0
Cc1cccc(NC(=O)CCN2C(=O)C3C4C=CC(C4)C3C2=O)n1 (stereo not given)	/	-0.2
CCCOC(=O)c1ccc(OCC(O)Cn2c(C)nc3ccccc32)cc1 (stereo not given)	/	1.1
O=C(NCc1ccco1)c1ccc(CS(=O)(=O)c2cccc(C(F)(F)F)c2)o1	/	2.1
CCCc1[nH]nc2c1C(c1ccncc1)C(C#N)=C(N)O2 (stereo not given)	/	-0.7
Cc1nnc(SCCn2c(Br)nc3c2c(=O)n(C)c(=O)n3C)s1	i	-0.2
COc1ccc(N(CC(=O)Nc2nccs2)S(=O)(=O)c2c(C)nn(C)c2C)cc1	/	2.6

Next section
SMILES	VCAM-1 rise	26S disassembly
COc1ccccc1C(=O)Nn1cnc2ccccc2c1=O	/	-1.1
CC(CCc1ccco1)NC(=O)c1cc2c(-c3ccccc3F)nn(C)c2s1 (stereo not given)	/	1.2
COC(=O)c1c(C)nn(-c2ccccc2)c1N	/	-1.4
COc1ccc(-c2[nH]nc3c2C(c2ccncc2)C(C#N)=C(N)O3)cc1 (stereo not given)	i	-1.1
Cc1nccn1S(=O)(=O)c1ccc(Br)cc1Br	/	-0.4
Nc1nnc(-c2cn(-c3ccccc3)nc2-c2ccccc2)o1	i	3.0
CCCCCOC(=O)CSc1nnc(-c2ccccc2)c(=O)[nH]1	/	0.5
COc1nc(Oc2ccc(=O)n(C)n2)nc(N(C)C)n1	i	-1.7
CC(C)(C)C1CCc2onc(C(=O)NCc3ccc(F)cc3)c2C1 (stereo not given)	/	-0.4
CCOC(=O)C1CCCN(C(=O)Cn2nc(CC)n3c(cc4sccc43)c2=O)C1 (stereo not given)	/	1.0

Single entries from the entries so far.
In 26S disassembly, Cc1nccn1S(=O)(=O)c1ccc(Br)cc1Br is entered as -0.4
In 26S disassembly, COc1ccc(-c2[nH]nc3c2C(c2ccncc2)C(C#N)=C(N)O3)cc1 (stereo not given) is entered as -1.1
In 26S disassembly, CC(C)(C)C1CCc2onc(C(=O)NCc3ccc(F)cc3)c2C1 (stereo not given) is entered as -0.4
In 26S disassembly, CC(CCc1ccco1)NC(=O)c1cc2c(-c3ccccc3F)nn(C)c2s1 (stereo not given) is entered as 1.2

Going on with the list:
SMILES	VCAM-1 rise	26S disassembly
COc1ccc(C(CC(=O)O)NC(=O)Cc2ccccc2)cc1 (stereo not given)	/	3.0
COc1ccccc1NC(=O)CSC1CC(=O)N(c2ccc3c(c2)OCO3)C1=O (stereo not given)	i	-1.7
C=CCSc1nc2c(c(=O)[nH]1)C(C(C)C)C(C#N)=C(N)O2 (stereo not given)	/	0.2
O=C(NCCCCNC(=O)c1cccnc1)c1cccnc1	i	0.6
CCCNS(=O)(=O)c1ccc(OCC(=O)NCc2ccco2)cc1	i	-0.3
O=C1CSC(c2ccccn2)N1c1ccccc1 (stereo not given)	/	-1.1
CC1CCc2nc(N)c(C#N)c(-c3cccnc3)c2C1 (stereo not given)	/	0.3
CCc1ccc(N(CC(=O)NC2CCCCC2)S(=O)(=O)c2c(C)noc2C)cc1	/	-0.5
COc1ccc(OC)c(NC(=O)CSc2nnc(CNC(=O)COc3ccc(Cl)cc3)o2)c1	/	-0.1
COc1ccc(NC(=O)CN2CCN(CC(=O)Nc3ccc4c(c3)OCO4)CC2)cc1	/	-0.2

Three entries from above, ordered by their value in 26S disassembly, descending.
SMILES	VCAM-1 rise	26S disassembly
COc1ccc(C(CC(=O)O)NC(=O)Cc2ccccc2)cc1 (stereo not given)	/	3.0
CC1CCc2nc(N)c(C#N)c(-c3cccnc3)c2C1 (stereo not given)	/	0.3
O=C1CSC(c2ccccn2)N1c1ccccc1 (stereo not given)	/	-1.1

Further results follow.
SMILES	VCAM-1 rise	26S disassembly
CCOc1cccc(C(=O)N(Cc2ccc(F)cc2)C2CCS(=O)(=O)C2)c1 (stereo not given)	i	0.2
c1cc2c(cc1Nc1nc(-c3ccc4c(c3)OCO4)cs1)OCCO2	i	4.8
O=C(Nc1ccc(N2CCCC2)cc1)c1ccc(Br)o1	i	2.2
CCC(C)NC(=O)C(NS(=O)(=O)c1cccc2nsnc12)c1ccccc1 (stereo not given)	/	-0.4
c1ccc2nc(-c3nc4ccccc4[nH]3)ccc2c1	i	4.6
C=C(C)c1cccc(C(C)(C)NC(=O)Nc2ncccn2)c1	i	-1.3
CCOC(=O)NC(=O)CSc1nnnn1-c1ccc(Cl)cc1	i	-1.2
Cn1c(NCCO)nc2c(c1=O)C1(CCCCC1)Cc1ccccc1-2	/	0.2
O=C(O)c1cc(/C=N\O)ccc1OCc1ccccc1	i	-0.3
COc1ccc(C2C(C(=O)Nc3ccccc3OC)=C(C)Nc3nnnn32)c(OC)c1 (stereo not given)	/	-0.3
CCN(CC)S(=O)(=O)c1ccc(NC2c3ncccc3C(=O)N2Cc2ccccc2)cc1 (stereo not given)	/	-0.8
COc1ccccc1N1CCN(C(=O)CSc2nc(-c3ccccc3)cc(=O)[nH]2)CC1	i	-0.1
COc1cccc(Cn2nnc(C(=O)Nc3cc(C)ccc3OC)c2N)c1	/	0.1
NC(=O)C1(N2CCCCC2)CCN(CC(=O)Nc2cc(Cl)ccc2Cl)CC1	i	2.3
Cc1ccc(C(c2sc3ncnn3c2O)N2CC(C)CC(C)C2)cc1 (stereo not given)	i	0.1
CC(C)(C)NC(=O)Cn1nnc(-c2ccccc2Cl)n1	/	0.0
N#Cc1ccccc1-n1c(N)c(C(=O)N2CCCC2)sc1=S	/	-1.6
Cc1nonc1NC(=O)Nc1cccnc1	/	0.3
CCOc1ccc(NC(=O)CCS(=O)(=O)c2ccc3c(c2)CCCN3C(C)=O)cc1	/	0.0
COc1ccc(CNC(=O)C2COc3ccccc3O2)c(OC)c1 (stereo not given)	/	0.6
Cn1nnnc1SCc1cn2cccnc2n1	i	-1.0
